Screening data: PubChem, Broad Institute
Vaccinia stage: Vaccinia orthopox stage-specific inhibition; Vaccinia-infected cells, mCherry/Venus stage reporter fluorescence; active compounds read low; some inactives read as strong as hits; activity change (mCherry), % (no concentration beside the values); hit rate 0.01% among 89,000;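 active means mCherry past -33% and 40 or more points under the early reporter, replicates agreeing; inconclusive means past -33% without that gap or agreement; tested in A549 cells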;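 further: scaled between vehicle wells and reference inhibitor wells; 23 nL library stock went into each well; one replicate is shown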
Vaccinia stage Venus: second read-out of Vaccinia stage, no call of its own (marks repeat the call); activity change (Venus), %; measured here: Venus reporter, other viral stage;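 negative = less Venus signal; first of two replicates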
Numbers without * were called inactive; ? = inconclusive; . = not tested or not shown. These rows are one share of the data. The share of hits here may be higher or lower than overall.

SMILES | Vaccinia stage | Vaccinia stage Venus
C/C=C/c1ccc([C@H]2[C@@H](CO)N(C(C)=O)[C@H]2CNC(=O)c2ccccc2)cc1 | -4 | -1
C[C@H]1CN([C@@H](C)CO)S(=O)(=O)c2ccc(-c3ccccc3F)cc2O[C@H]1CN(C)Cc1ccncc1 | -34 | -27
O=C(C[C@H]1C[C@@H]2c3cc(NC(=O)Nc4ccccc4)ccc3O[C@@H]2[C@H](CO)O1)NCC(F)(F)F | 20 | 12
CCCC#Cc1ccc2c(c1)O[C@@H](CN(C)C(=O)C1CCC1)[C@@H](C)CN([C@H](C)CO)S2(=O)=O | -32 | -23
COc1ccc(NC(=O)Nc2ccc3c(c2)C(=O)N([C@H](C)CO)C[C@H](C)[C@@H](CN(C)C(=O)C2CCCCC2)OCCCC[C@@H](C)O3)cc1 | 16 | 6
CO[C@@H]1CN(C)C(=O)c2ccc(NC(=O)C3CCCCC3)cc2OC[C@@H](C)N(C)C[C@@H]1C | -1 | -7
C[C@@H]1CN([C@@H](C)CO)C(=O)c2cc(NC(=O)Cc3ccccc3)ccc2O[C@H]1CN(C)CC1CCCCC1 | -15 | -6
O=C(C[C@H]1CC[C@@H]2[C@H](COC[C@H](O)CN2Cc2nccs2)O1)NCc1ccc(Oc2ccccc2)cc1 | ? | .
CCCNC(=O)N1C[C@@H]2[C@H](c3ccccc31)[C@H](CO)N2CC1CCCCC1 | 0 | 6
COc1cccc(CN2C[C@@H]3N[C@H](C2)C3c2ccc(-c3ccc(C#N)cc3)cc2)c1 (stereo partly drawn) | ? | -17
C[C@H](O)C#Cc1ccc2c(c1)O[C@@H](CN(C)Cc1ccncc1)[C@@H](C)CN([C@@H](C)CO)S2(=O)=O | 4 | -4
COc1ccc(CNC(=O)C[C@H]2C[C@@H]3c4cc(NS(C)(=O)=O)ccc4O[C@@H]3[C@@H](CO)O2)cc1 | 14 | 13
Cc1ccc(S(=O)(=O)N(C)C[C@@H]2Oc3ccc(NC(=O)Nc4ccccc4)cc3CC(=O)N([C@H](C)CO)C[C@@H]2C)cc1 | ? | .
O=C(NC1CCC1)[C@@H]1[C@@H](CO)[C@@H]2Cn3c(ccc(-c4ccc(F)cc4)c3=O)[C@@H]2N1Cc1ccccn1 | 8 | 11
CC(C)C#Cc1ccc([C@@H]2[C@@H](CO)N3CCCCN(C(=O)NC(C)C)C[C@H]23)cc1 | -5 | -13

Laid out differently: entries from further up.
O=C(C[C@H]1CC[C@@H]2[C@H](COC[C@H](O)CN2Cc2nccs2)O1)NCc1ccc(Oc2ccccc2)cc1
  Vaccinia stage = ? | Vaccinia stage Venus = .
COc1ccc(NC(=O)Nc2ccc3c(c2)C(=O)N([C@H](C)CO)C[C@H](C)[C@@H](CN(C)C(=O)C2CCCCC2)OCCCC[C@@H](C)O3)cc1
  Vaccinia stage = 16 | Vaccinia stage Venus = 6

More structures
SMILES | Vaccinia stage | Vaccinia stage Venus
OC(CSc1ccncc1)CC(O)c1ccccc1 (stereo not drawn) | -1 | -3
Cc1ccc(S(=O)(=O)N2C[C@@H](O)COC[C@@H]3O[C@@H](CC(=O)NCC4CCCCC4)CC[C@H]32)cc1 | -30 | -24
CCCC#Cc1cnc2c(c1)C(=O)N([C@H](C)CO)C[C@@H](C)[C@H](CN(C)C(=O)c1ccc3c(c1)OCO3)O2 | -8 | -2
C[C@@H]1CN([C@@H](C)CO)C(=O)c2cc(NC(=O)NC3CCCCC3)ccc2O[C@@H](C)CCCCO[C@@H]1CN(C)S(=O)(=O)c1ccccc1 | 3 | 6
CCC(=O)Nc1ccc2c(c1)OC[C@@H](C)N(Cc1ccccc1OC)C[C@H](C)[C@H](OC)CN(C)C2=O | -4 | -6
C[C@H]1CN([C@@H](C)CO)C(=O)c2cc(Br)cnc2O[C@H]1CN(C)CC1CCOCC1 | 7 | 7
COCC(=O)Nc1ccc2c(c1)[C@@H]1C[C@H](CC(=O)NCc3cccnc3)O[C@@H](CO)[C@@H]1O2 | -8 | -7
C[C@H]1CN([C@@H](C)CO)C(=O)c2cc(NC(=O)CCCCCC(=O)Nc3ccccc3N)ccc2O[C@H]1CN(C)Cc1ccc(C(F)(F)F)cc1 | -22 | -14
Cc1ccc(S(=O)(=O)NCC[C@H]2CC[C@@H](NC(=O)c3cccc(F)c3)[C@H](CO)O2)cc1 | -6 | -1
CC(=O)N1[C@H](CO)[C@H](c2ccc(C3=CCCCC3)cc2)[C@@H]1CNC(=O)CN(C)C | -2 | 8
Cc1ccc(S(=O)(=O)N(C)C[C@@H]2Oc3c(NC(=O)Nc4ccc(F)cc4)cccc3C(=O)N([C@@H](C)CO)C[C@H]2C)cc1 | -23 | -10
COc1ccc(S(=O)(=O)N(C)C[C@@H]2Oc3ccc(NC(=O)Cc4ccccc4)cc3C(=O)N([C@H](C)CO)C[C@H]2C)cc1 | 14 | 8
CC(=O)N[C@@H]1CC[C@H](CCNC(=O)C2CCCCC2)O[C@H]1CO | -2 | 7
C[C@H]1CN([C@@H](C)CO)C(=O)Cc2cc(NC(=O)c3ccncc3)ccc2O[C@H]1CN(C)Cc1ccc(C(F)(F)F)cc1 | -4 | -9
CC(=O)Nc1ccc2c(c1)C(=O)N(C)[C@H]1CC[C@H](CC(=O)NCc3ccccc3)O[C@@H]1CO2 | 9 | -7
COc1ccc(NC(=O)Nc2ccc3c(c2)C(=O)N([C@H](C)CO)C[C@H](C)[C@@H](CN(C)Cc2ccncc2)OCCCC[C@@H](C)O3)cc1 | 3 | -2
C[C@@H]1CN([C@@H](C)CO)C(=O)c2cccc(NC(=O)C3CCOCC3)c2O[C@H]1CN(C)C(=O)Nc1ccc(F)cc1 | 9 | 5
COc1ccc(C#Cc2ccc([C@H]3[C@@H](CO)N4C(=O)CN(C(=O)Nc5ccccc5F)C[C@H]34)cc2)cc1 | -7 | 0
Cc1ccc(-c2ccc(C3[C@H]4CNC[C@@H]3N4Cc3cccc(F)c3)cc2)cc1 (stereo partly drawn) | -7 | -13
CN1c2ccc(Br)cc2[C@@H]2[C@@H](CCN2C(=O)C2CCCC2)[C@H]1CO | -26 | -18
O=C(NCC(F)(F)F)[C@H]1[C@H](CO)[C@H]2Cn3c(cccc3=O)[C@@H]1N2C(=O)C1CCCC1 | 10 | 17
COc1cccc(-c2ccc([C@H]3[C@@H](CO)N4C(=O)CN(C(=O)CN5CCOCC5)C[C@@H]34)cc2)c1 | 36 | 11
O=C(NCC[C@@H]1CC[C@@H](NS(=O)(=O)c2ccc(F)cc2)[C@@H](CO)O1)Nc1ccc(F)cc1 | 9 | 5
COCC(=O)Nc1ccc2c(c1)OC[C@H](C)N(Cc1ccccn1)C[C@@H](C)[C@@H](OC)CN(C)C2=O | 5 | 3
CN1C(=O)c2cc(NC(=O)C3CCOCC3)ccc2OC[C@@H]2O[C@@H](CC(=O)NCC3CCCCC3)CC[C@@H]21 | 20 | 10
COc1ccc(NC(=O)N(C)C[C@@H]2OCCCC[C@H](C)Oc3ccc(NS(=O)(=O)c4cccs4)cc3C(=O)N([C@@H](C)CO)C[C@@H]2C)cc1 | 0 | 0
COc1ccc(-c2cnc3c(c2)C(=O)N([C@H](C)CO)C[C@@H](C)[C@H](CN(C)C)O3)cc1 | 8 | 6
C[C@H]1CCCCO[C@@H](CN(C)Cc2ccc(C(F)(F)F)cc2)[C@@H](C)CN([C@@H](C)CO)C(=O)c2cc(NC(=O)NC3CCCCC3)ccc2O1 | -23 | -11
C[C@H]1CCCCO[C@H](CN(C)C(=O)C2CCCCC2)[C@@H](C)CN([C@@H](C)CO)C(=O)c2cc(NC(=O)Nc3ccc(F)cc3)ccc2O1 | -34 | -24
O=C(Cc1ccncc1)NCC[C@H]1CC[C@@H](NC(=O)C2CCOCC2)[C@@H](CO)O1 | 13 | 5

Reformatted: results already given
SMILES,Vaccinia stage,Vaccinia stage Venus
O=C(NCC[C@@H]1CC[C@@H](NS(=O)(=O)c2ccc(F)cc2)[C@@H](CO)O1)Nc1ccc(F)cc1,9,5
COCC(=O)Nc1ccc2c(c1)OC[C@H](C)N(Cc1ccccn1)C[C@@H](C)[C@@H](OC)CN(C)C2=O,5,3
CN1C(=O)c2cc(NC(=O)C3CCOCC3)ccc2OC[C@@H]2O[C@@H](CC(=O)NCC3CCCCC3)CC[C@@H]21,20,10
COc1ccc(NC(=O)N(C)C[C@@H]2OCCCC[C@H](C)Oc3ccc(NS(=O)(=O)c4cccs4)cc3C(=O)N([C@@H](C)CO)C[C@@H]2C)cc1,0,0
COc1ccc(-c2cnc3c(c2)C(=O)N([C@H](C)CO)C[C@@H](C)[C@H](CN(C)C)O3)cc1,8,6
C[C@H]1CCCCO[C@@H](CN(C)Cc2ccc(C(F)(F)F)cc2)[C@@H](C)CN([C@@H](C)CO)C(=O)c2cc(NC(=O)NC3CCCCC3)ccc2O1,-23,-11
C[C@H]1CCCCO[C@H](CN(C)C(=O)C2CCCCC2)[C@@H](C)CN([C@@H](C)CO)C(=O)c2cc(NC(=O)Nc3ccc(F)cc3)ccc2O1,-34,-24

(more compounds)
SMILES | Vaccinia stage | Vaccinia stage Venus
CO[C@@H]1CN(C)C(=O)c2cc(NS(C)(=O)=O)ccc2OC[C@@H](C)N(C(=O)CC2CC2)C[C@@H]1C | 22 | 12
CC(=O)N(C)C[C@H]1Oc2ncc(C#Cc3cccnc3)cc2C(=O)N([C@H](C)CO)C[C@H]1C | 7 | 9
C[C@H]1CN([C@@H](C)CO)C(=O)Cc2cc(NC(=O)Cn3cnnn3)ccc2O[C@@H]1CN(C)C(=O)Nc1ccccc1 | 19 | 22
COc1ccc(NC(=O)N(C)C[C@H]2Oc3ccc(NC(=O)c4ccncc4)cc3CC(=O)N([C@H](C)CO)C[C@H]2C)cc1 | -2 | 3
CC(C)C#Cc1cnc2c(c1)C(=O)N([C@@H](C)CO)C[C@H](C)[C@@H](CN(C)Cc1ccccn1)O2 | -1 | 5
COCCNC(=O)C[C@H]1CC[C@H]2[C@@H](COc3ccc(NC(=O)C4CCOCC4)cc3C(=O)N2C)O1 | -6 | 4
C[C@@H]1CN([C@H](C)CO)C(=O)c2cccc(NS(=O)(=O)c3ccccc3)c2O[C@H]1CN(C)CC1CCCCC1 | 9 | 2
CCC(=O)NC[C@@H]1[C@H](c2ccc(C3=CCCC3)cc2)[C@@H](CO)N1C(C)=O | 0 | -4
C[C@@H]1CCCCO[C@H](CN(C)S(=O)(=O)c2ccccc2)[C@H](C)CN([C@H](C)CO)C(=O)c2cc(NC(=O)C3CCCCC3)ccc2O1 | -30 | -10
COc1cccc(C#Cc2cnc3c(c2)C(=O)N([C@@H](C)CO)C[C@H](C)[C@@H](CN(C)C(=O)C2CCC2)O3)c1 | -2 | -10
C[C@H](CO)N1C[C@H](C)[C@@H](CN(C)Cc2ccc3c(c2)OCO3)OCCCC[C@H](C)Oc2ccc(NC(=O)C3CCCCC3)cc2C1=O | ? | .
Cc1ccc(-c2ccc3c(c2)O[C@@H](CN(C)C(=O)Nc2ccccc2)[C@H](C)CN([C@@H](C)CO)S3(=O)=O)cc1 | ? | .
C[C@@H]1CN([C@@H](C)CO)C(=O)c2cc(NC(=O)c3ccncc3)ccc2O[C@@H](C)CCCCO[C@H]1CN(C)C(=O)Nc1ccc2c(c1)OCO2 | 7 | 1
O=C(C[C@H]1CC[C@H](NC(=O)C2CCC2)[C@H](CO)O1)Nc1nccs1 | 6 | 9
C[C@@H]1CN([C@H](C)CO)C(=O)c2cc(NS(=O)(=O)c3ccccc3)ccc2O[C@@H](C)CCCCO[C@H]1CN(C)Cc1ccc2c(c1)OCO2 | ? | .
CCCC#Cc1ccc2c(c1)O[C@@H](CN(C)Cc1ccccn1)[C@@H](C)CN([C@H](C)CO)S2(=O)=O | -17 | -8
O=C(Nc1cccc(F)c1)N1CC(=O)N2[C@H](CO)[C@@H](c3ccc(-c4ccccc4)cc3)[C@@H]2C1 | -27 | -18
C[C@@H]1CN([C@@H](C)CO)C(=O)c2cc(NC(=O)Nc3ccc4c(c3)OCO4)ccc2O[C@H]1CN(C)Cc1ccc(Cl)c(Cl)c1 | -27 | -24
C[C@@H]1CCCCO[C@H](CN(C)S(=O)(=O)c2ccc(Cl)cc2)[C@@H](C)CN([C@H](C)CO)C(=O)c2cc(NC(=O)Nc3ccc4c(c3)OCO4)ccc2O1 | 13 | 2
C[C@@H]1CN([C@@H](C)CO)C(=O)c2cc(NC(=O)CCC(F)(F)F)ccc2O[C@@H]1CN(C)S(C)(=O)=O | 1 | 3
COc1ccc(NC(=O)N(C)C[C@@H]2Oc3c(NC(=O)Nc4ccccc4)cccc3C(=O)N([C@H](C)CO)C[C@@H]2C)cc1 | -26 | -19
C[C@@H]1CN([C@@H](C)CO)S(=O)(=O)c2ccc(C#CCC3CCCC3)cc2O[C@H]1CN(C)C(=O)CC1CC1 | ? | .
O=C(Nc1ccc2c(c1)[C@@H]1C[C@@H](CC(=O)N3CCc4ccccc4C3)O[C@H](CO)[C@@H]1O2)Nc1ccccc1F | -16 | -12
COc1ccc2c3c([nH]c2c1)[C@@H](CO)N(C)CC31CN(S(C)(=O)=O)C1 | 1 | -1
C/C=C/c1ccc([C@@H]2[C@@H](CNC(=O)CC)N(C(=O)COC)[C@H]2CO)cc1 | 10 | 9
C[C@@H]1CN([C@@H](C)CO)S(=O)(=O)c2ccc(C#CC3CCCCC3)cc2O[C@@H]1CN(C)C | ? | .
O=C(C[C@H]1C[C@@H]2c3cc(NS(=O)(=O)c4ccc(F)cc4)ccc3O[C@@H]2[C@H](CO)O1)NCc1cccc(F)c1 | -6 | 1
C[C@@H]1CN([C@@H](C)CO)C(=O)c2cc(-c3ccccc3)cnc2O[C@@H]1CN(C)C(=O)Cc1ccccn1 | 20 | 5
O=C(NCC1CC1)[C@H]1[C@H](CO)[C@H]2Cn3c(ccc(C4=CCCCC4)c3=O)[C@@H]1N2 | 7 | 3
CCNC(=O)C[C@@H]1C=C[C@H](NC(=O)C2CCOCC2)[C@@H](CO)O1 | 10 | 7
CC(=O)N1[C@H](CO)[C@H](c2ccccc2)C12CN(C(=O)c1ccc3c(c1)OCO3)C2 | 3 | 1
CO[C@H]1CN(C)C(=O)c2cc(NC(C)=O)ccc2OC[C@@H](C)N(Cc2ccc(F)cc2)C[C@@H]1C | -14 | -11
